Source: PubChem (several laboratories)
UCH37 inh: blocks the human deubiquitinase UCH37; purified proteasome/UCH37, Ub-AMC cleavage fluorescence; 330,000 compounds, 0.33% hits; Q9Y5K5; inhibition, % (test concentration not listed); AID 588478;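 active = mean of two replicates above 20%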;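 note: 0% = compound-free wells with enzyme and 100% = wells lacking proteasome; stock transfer was 100 nL into about 20 µL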
Target sequence (Q9Y5K5 whole entry, looked up): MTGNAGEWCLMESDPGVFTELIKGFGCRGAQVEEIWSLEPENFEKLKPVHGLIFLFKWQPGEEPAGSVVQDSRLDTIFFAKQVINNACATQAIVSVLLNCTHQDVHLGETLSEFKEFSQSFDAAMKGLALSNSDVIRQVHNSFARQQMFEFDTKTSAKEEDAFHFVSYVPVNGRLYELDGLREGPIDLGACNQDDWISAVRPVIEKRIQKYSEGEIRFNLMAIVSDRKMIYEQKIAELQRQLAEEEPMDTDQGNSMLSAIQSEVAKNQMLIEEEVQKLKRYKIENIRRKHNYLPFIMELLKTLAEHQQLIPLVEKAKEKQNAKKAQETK
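Signal – fluorescence, ex 355 nm, em 460 nm · System – Proteasome-bound UCH37 · Input – 0.15 nM proteasome as dispensed · Timing – 30 min preincubation with enzyme, 25 min cleavage at room temperature · Read-out basis – percent inhibition of cleavage signal versus uninhibited and no-proteasome wells · Medium – Tris-HCl pH 7.4 with ATP-MgCl2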
Vif TR-FRET: inhibitors of Vif binding to APOBEC3G peptide, primary screen, biochemical, TR-FRET, GST-Vif 1-94, biotin-A3G peptide, dose response retest (AID 1117319); TR-FRET GST-Vif / biotin-A3G peptide binding; higher % means a stronger effect; test concentration not given here; strong numbers were not always called active; inhibition, %; hits with a dose series show IC50 in µM; 260,000 compounds, 0.57% hits;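 active = above the screen mean plus three standard deviations and confirmed in dose response; inconclusive = results disagree or hit not tested in dose response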;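 note: Vif residues 1-94 fused to GST binding biotinylated APOBEC3G peptide 110-148; 0% = full assay without inhibitor and 100% = GST in place of GST-Vif; retest series ran down from 100 µM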
FGF22 binding: FGF22 (human) thermal shift binding. Q9HCT0. recombinant FGF22 thermal shift, SYPRO orange fluorescence; percent of sucrose octasulfate shift, DMSO zero. calls only at 9.99 µM. 340,000 compounds, 1.5% hits. AID 651658;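 active = melting point raised past a set limit in the mean and every replicate; inconclusive = no clear call; three in four hits are not shown here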
Target sequence (Q9HCT0 whole entry, looked up): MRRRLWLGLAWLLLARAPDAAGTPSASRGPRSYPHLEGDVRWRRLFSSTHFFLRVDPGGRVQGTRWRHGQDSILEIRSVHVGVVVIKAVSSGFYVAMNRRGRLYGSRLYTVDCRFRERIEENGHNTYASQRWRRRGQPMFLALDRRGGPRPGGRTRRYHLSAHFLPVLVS
RanGTP-Impb inh: inhibitors of RanGTP-importin-beta interaction, primary screen, biochemical, FRET, CFP-Ran, YFP-importin-beta, homogeneous. inhibition, % (concentration not given with the values). cell-free CFP-Ran/YFP-importin-beta FRET ratio. AID 2216. 300,000 compounds, 1.1% hits;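 active = most replicates above 15%; inconclusive = exactly half above 15%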;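 note: 0% = DMSO wells and 100% = Ran loaded with GDP instead of GTP; wells of about 40 µL received 100 nL stock; the first replicate is given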
E coli growth: inhibitors of Escherichia coli growth | OD600 absorbance (test concentration not listed) | 330,000 compounds, 0.21% hits | OD600, 23 h; active compounds read low;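 active = OD600 absorbance below the run mean of sample wells minus 3.6 SD, in any replicate, cut at about 0.56 in these data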;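 note: stock transfer was 300 nL into about 60 µL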
AF4-AF9 inh: blocks AF4 peptide binding to human AF9; AID 651704; inhibition, % at 10 µM; 350,000 compounds, 0.47% hits; AlphaScreen, biotin-AF4 peptide binding to FLAG-AF9; P42568;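 active = every replicate reaching a set inhibition limit, whatever the replicate mean, cut at about 25% in these data; inconclusive = mean inhibition reaches that limit but some replicates miss it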;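 note: 0% = plate neutral control median and 100% = total signal loss; the record names both 10 and 1 µM as test concentration; the first replicate is given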
HNF4A DNA FP: change in binding of human HNF4 alpha to DNA. AID 1224865. HNF4a-FITC DNA binding, fluorescence polarization, 1 h. P41235. activity change, % at 10 µM. 360,000 compounds, 0.3% hits; in the data active = activity change above about 30%, passing the limit was not always enough;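 note: controls were the assay level and a saturating level of protein; the project sought stronger binding though the title names inhibitors; some compounds called inactive have numbers as strong as hits; positive values seem to mean higher polarization but the record does not say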
Target sequence (P41235 whole entry, looked up): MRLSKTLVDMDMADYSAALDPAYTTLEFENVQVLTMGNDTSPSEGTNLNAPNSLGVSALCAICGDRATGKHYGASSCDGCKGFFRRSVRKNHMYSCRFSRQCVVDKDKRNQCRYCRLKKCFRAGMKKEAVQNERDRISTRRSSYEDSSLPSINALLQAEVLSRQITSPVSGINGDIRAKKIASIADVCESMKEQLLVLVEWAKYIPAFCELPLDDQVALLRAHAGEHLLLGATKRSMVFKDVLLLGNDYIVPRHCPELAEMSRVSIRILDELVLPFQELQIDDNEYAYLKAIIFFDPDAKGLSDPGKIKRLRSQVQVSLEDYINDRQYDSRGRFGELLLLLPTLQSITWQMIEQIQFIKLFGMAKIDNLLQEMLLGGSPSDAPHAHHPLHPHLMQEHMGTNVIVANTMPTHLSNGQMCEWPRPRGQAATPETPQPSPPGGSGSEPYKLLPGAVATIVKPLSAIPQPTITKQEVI
An asterisk follows results filed as active; i = inactive; ? = inconclusive; nt = no result given; & = joins results of further samples. The list is partial; count on the stated rates, not on these rows.

Vif TR-FRET,HNF4A DNA FP,E coli growth,RanGTP-Impb inh,AF4-AF9 inh,UCH37 inh,FGF22 binding,smiles
nt,1.8,nt,-3.9,-1.7,nt,i,O=[N+]([O-])c1ccc(Cl)c(NC2=NCCCCC2)c1
25%,-18,0.69,3.6,-2.8,-9.6,i,O=C(O)c1cc(-c2ccc(/C=C3\NC(=O)N(c4ccccc4)C3=O)o2)ccc1Cl
-1%,2.3,0.75,-3.9,nt,1.9,nt,C=CCOC(=O)c1[nH]c2c(c1C)C(=O)CC(c1cc(OC)c(OC)c(OC)c1)C2 (stereo unspecified)
18%,0.2,0.71,5.3,nt,3.4,nt,O=C(NCCCc1ccccc1)c1ccc(Br)o1
1%,-3.3,0.66,nt,-0.8,-0.3,i,CCCCOc1ccc(C(=O)NCC(=O)N(C)Cc2nc3ccccc3c(=O)[nH]2)cc1
2%,0.5,0.7,-5.9,nt,-0.5,nt,CC(C)CNS(=O)(=O)c1ccc(OCC(=O)Nc2ccc3c(c2)OCO3)c(Cl)c1
1%,0.6,0.78,?,nt,-5.1,nt,O=C(OCc1nc2ccccc2s1)c1cccc(S(=O)(=O)N2CCOCC2)c1
nt,0.2,0.69,nt,-1.6,0.3,i,NC(=O)c1ccc(SCC(=O)OCC(=O)NCc2cccs2)c([N+](=O)[O-])c1
-1%,7.2,0.73,1.6,nt,-0.3,nt,O=C(Nc1c(C(=O)N2CCOCC2)cnn1-c1ccccc1)c1ccccc1
4%,2.5,0.73,1.1,nt,3.6,nt,Oc1c(C=C2N=c3ccccc3=N2)sc(=S)n1C1CCCC1
nt,4.7,0.71,1.9,0.4,0.9,i,O=C(CN1C(=O)CCC1=O)NNc1ccc2ccccc2c1
-3%,0.0,0.67,0.2,-5.3,5.2,i,COc1ccc(CSc2ncnc3sccc23)cc1F
nt,1.7,0.65,5.9,0.3,1.4,i,CN1CCN(S(=O)(=O)c2cc(Cl)c(Cl)cc2Cl)CC1
4%,-6.5,0.75,nt,nt,-0.1,nt,CC(C)c1nc2ccccc2c2nnc(SCC(=O)NCc3ccco3)n12
3%,-0.7,0.68,nt,-1.5,1.7,i,CN(C)C(=O)CCc1ccc2c3c([nH]c2c1)[C@]1(C)[C@@H](C(=O)N2CCCCC2)C[C@H](CC(=O)NCCCn2ccnc2)C(=O)N1CC3
nt,0.8,nt,?,10,13,i,CCOC(=O)CN1C(=O)N[C@@H](c2cccc(F)c2)C(C(=O)OC)=C1C
-1%,-0.1,0.7,4.6,-0.8,6.2,i,CC(Sc1nn(-c2ccc(Cl)cc2)c(=S)s1)C(=O)NCC1CCCO1 (stereo unspecified)
2%,-1.0,0.7,0.5,2.4,1.3,nt,CSc1ccccc1C(=O)NCc1cccnc1
-14%,-0.6,0.77,nt,0.7,2.6,i,CCCc1ccc(Oc2cc(N3CCOCC3)nc(-c3ccccc3)n2)cc1
6%,1.1,0.63,-5.7,0.5,2.1,i,CN(CC(=O)Nc1c(Cl)cccc1Cl)C(=O)c1ccc2nc[nH]c2c1
nt,-2.8,0.65,-3.8,?,-0.5,i,CCOC(=O)CON1C(=O)C(=O)N(OCC(=O)OCC)C2CCCCC21 (stereo unspecified)
nt,-1.3,nt,nt,0.4&5.1&-1.1,nt,i,Cc1ccccc1S(=O)(=O)N(C)C[C@H]1OCc2cn(nn2)CCCC(=O)N([C@@H](C)CO)C[C@@H]1C
nt,-2.4,0.71,nt,1.3,-0.7,i,Cc1cc(NC(=O)CSc2nnc(-c3ccco3)n2N)no1
-3%,0.2,0.68,?,nt,0.7,nt,Cc1ccc(C(=O)N/C(=C\c2cccc([N+](=O)[O-])c2)C(=O)NCc2ccncc2)cc1
24%,1.3,0.71,4.6,nt,0.1,nt,O=C(CCn1c(=O)c2ccccc2n(Cc2cccc([N+](=O)[O-])c2)c1=O)N1CCc2ccccc2C1
3%,-3.3,0.72,9.3,-11,-0.6,i,CN(CC(=O)Nc1ccccc1Br)C(=O)C1CCN(C(=O)c2ccc(Cl)cc2)CC1
nt,2.3,nt,nt,0.9,nt,i,CCC(=O)N1Cc2cc(C(=O)Nc3nccs3)nc(-c3cccc(-c4ccccc4OC)c3)c2[C@@H]1CCO
nt,0.0,0.6,-0.2,-0.8,2.8,i,Cc1ccc(NC(=O)CSc2nnc(CNC(=O)c3ccccc3F)o2)cc1Cl
26%,-0.3,0.71,4.6,-12,0.5,i,CCOC(=O)N1CCN(S(=O)(=O)c2ccc(C(=O)Nc3nnc(C)o3)cc2)CC1
7%,-0.6,0.65,-0.4,-2.9,-1.4,i,O=S(=O)(NCCc1csc(-c2ccccc2)n1)c1cccnc1
-1%,-2.4,0.71,3.2,nt,2.8,nt,COc1ccc(CN(CC(=O)NCC2CCCO2)C(=O)CCC(=O)Nc2cc(C)ccn2)cc1 (stereo unspecified)
16%,1.0,0.7,-1.1,3.0,-1.9,i,Cc1nc(-c2ccc(Cl)cc2)sc1C1(C)CC(c2cccnc2)=NO1 (stereo unspecified)
1%,-1.3,0.66,1.2,nt,2.9,nt,CCNC(=O)CN(c1ccc(C)cc1)S(=O)(=O)c1ccc(SC)cc1
-8%,-1.2,nt,nt,0.9,nt,i,Nc1nc2ccc(Br)cc2s1
-10%,3.2,0.73,-0.6,-33,0.5,i,CC(CC(=O)O)n1nnc2ccccc21 (stereo unspecified)
4%,-0.9,0.69,7.8,nt,5.9,nt,Cc1ccc(-c2cc(C(F)(F)F)n3nc(C(=O)Nc4c(C)n(C)n(-c5ccccc5)c4=O)cc3n2)cc1
-4%,-3.6,nt,3.3,-37,nt,i,CCOC(=O)N/N=C(\C)c1ccc(Br)cc1
-21%,-5.2,0.74,?,0.5,-2.3,i,CC1CCC(NC(=O)c2cc3c(=O)n(C)c4ccccc4c3n2C)CC1 (stereo unspecified)
-10%,2.0,nt,0.8,-1.0,-0.7,i,CCCCNC(=O)Nc1ccccc1Br
nt,-1.6,nt,nt,-5.0,nt,i,CS(=O)(=O)Nc1cccc(NC(=O)c2ccc(-n3ccnc3)c3ccoc23)c1
1%,-3.5,0.75,-5.1,-0.9,1.6,i,Cc1ccc(NS(=O)(=O)c2cc(C(N)=O)ccc2C)cc1
nt,1.4,0.63,5.3,-1.3,0.6,i,CCCCN1C(=O)CC(C(=O)OCC)=C1C
-5%,-1.4,0.71,2.9,-1.9,6.2,i,O=C(NNC(=O)c1cccs1)c1cccnc1
nt,3.5,0.72,-1.5,0.1,1.8,i,CCn1c2ccccc2c2cc(CN3CCN(Cc4cc(OC)ccc4O)CC3)ccc21
?,1.4,0.7,-2.0,nt,5.2,nt,O=C(Nc1ccc(N2CCN(C(=O)c3ccco3)CC2)cc1)c1cccc(F)c1
-7%,-0.1,nt,nt,-1.9,nt,i,Cc1ccc2c(C)c(C)c(=O)n(C)c2c1
nt,0.3,0.65,9.4,-5.5,2.9,i,CC(C)c1csc(CN2CCCC(CNC(=O)c3cccc4ccccc34)C2)n1 (stereo unspecified)
nt,-1.0,0.69,-1.4,-2.5,11,i,COc1ccc(CCNC(=O)c2ccc(-c3ccc([N+](=O)[O-])cc3Cl)o2)cc1OC
nt,0.8,0.64,2.5,-0.7,-3.3,i,O=C(COc1ccc(Br)cc1)Nc1ccc(S(=O)(=O)Nc2ccccn2)cc1
-10%,-0.4,0.75,5.0,nt,1.1,nt,O=C(Cn1nc(-c2ccccc2)c2ccccc2c1=O)Nc1ccc2c(c1)nc1n2CCOC1

Continued.
Vif TR-FRET,HNF4A DNA FP,E coli growth,RanGTP-Impb inh,AF4-AF9 inh,UCH37 inh,FGF22 binding,smiles
0%,3.3,0.61,nt,-45,-24,i,c1ccc(-c2cn3ccccc3n2)cc1
nt,2.0,nt,-1.3,0.2,nt,i,Cc1c(OCC(=O)NCCCn2ccnc2)ccc2c3c(c(=O)oc12)CCCC3
nt,0.3,0.7,3.1,5.5,-1.7,i,COc1ccc2[nH]cc(CCNC(=O)CCC3CCCCC3)c2c1
-4%,-2.8,0.65,-1.8,-1.1,3.3,nt,CSCCC(NS(=O)(=O)c1ccc(C)cc1)C(=O)NC1CCCCC1 (stereo unspecified)
2%,-2.0,0.67,3.6,-1.7,0.9,i,CCc1ccc(N(CC(=O)Nc2ccccc2C(=O)N2CCOCC2)S(C)(=O)=O)cc1
25%,-2.6,0.65,5.7,nt,-0.1,nt,CC1CCCCC1NC1=NCCS1 (stereo unspecified)
2%,-4.4,0.66,-2.5,nt,-16,nt,O=[N+]([O-])c1cccc(Cl)c1NCCNS(=O)(=O)c1ccc(Cl)cc1
6%,0.4,nt,nt,15,nt,i,CC12CCC(/C(=C/NNc3ccc([N+](=O)[O-])cc3[N+](=O)[O-])C1=O)C2(C)C (stereo unspecified)
12%,3.6,0.71,6.4,-6.5,1.7,i,COc1ccccc1NC(=O)C1(C)Cc2ccccc2C(=O)O1 (stereo unspecified)
2%,4.8,0.68,-3.0,nt,0.7,nt,C1=C(CCNc2nnnn2-c2ccccc2)CCCC1
0%,-3.4,0.71,0.1,nt,7.1,nt,CC1CCCC(NC(=O)COC(=O)Cc2ccsc2)C1C (stereo unspecified)
?,-0.8,0.75,-1.9,-0.4,4.9,i,CCOC(=O)N1CCN(C(=O)c2ccc(CS(=O)(=O)c3ccc(OC)cc3)o2)CC1
-2%,5.5,0.69,0.4,-6.3,-3.7,i,CCc1nnc(NC(=O)c2cc(C)oc2C)s1
-2%,-0.1,0.68,11,-0.2,-38,i,COc1cc(COc2ccc3c(C)c(CC(=O)O)c(=O)oc3c2C)cc(OC)c1OC
-1%,-1.3,0.71,-2.8,nt,2.1,nt,O=c1cc(N2CCCCC2)c(-c2ccccc2)nn1Cc1ccccc1Cl
4%,-0.2,nt,nt,-1.0,nt,i,Cc1ccc(Cl)cc1N1C(=O)CC(Sc2ccccc2N)C1=O (stereo unspecified)
9%,-0.3,0.68,2.1,-6.3,3.6,i,CNC(=S)N1CCc2cc(OC)c(OC)cc2C1COc1ccc(F)cc1 (stereo unspecified)
10%,-0.6,nt,nt,6.2,nt,i,COc1ccc(C=CC(=O)c2ccc(OC)c(OC)c2)cc1O
-3%,9.2,0.63,5.2,nt,-5.8,nt,CCCCC(=O)Nc1sc2c(c1C(N)=O)CCC2
2%,-5.9,0.68,5.3,3.0,2.0,i,CCNC(=O)COC(=O)c1cccc(Br)c1
4%,1.1,0.66,-0.3,nt,0.9,nt,CCN(CC)C(=O)CSc1nc2ccccc2c(=O)n1-c1ccccc1OC
nt,0.6,0.68,-5.3,0.9,1.2,i,CC(C)CN1CCC(=O)N(CCSc2ccccc2)CC1
2%,1.2,nt,nt,0.8,nt,i,Cc1nc(N2CCN(S(=O)(=O)c3cccs3)CC2)c2c(-c3ccccc3)c(C)sc2n1
-6%,2.5,0.65,-13,-5.6,-1.9,i,CCOc1ccc(Nc2nc3c(C)cccc3cc2C#N)cc1
-72%,4.5,0.72,-1.1,-7.1,-13,i,Cc1cc(NC(=O)CSc2nc3c(C)ccc(C)c3cc2C#N)no1
nt,0.8,nt,nt,0.7,0.6,i,C/C=C/C1=CC(=O)C[C@H](c2ccc(OC)c(OC)c2)C1
2%,-3.3,0.69,1.6,-1.9,4.0,i,COc1ccc(S(=O)(=O)NCC2CCCO2)cc1NC(=O)c1ccccc1 (stereo unspecified)
5%,0.1,0.72,nt,nt,5.6,nt,Cc1cc(COc2ccccc2OCc2cc(C)no2)on1

Complete entries as entered above.
Cc1cc(NC(=O)CSc2nc3c(C)ccc(C)c3cc2C#N)no1 is listed as Vif TR-FRET: -72%; HNF4A DNA FP: 4.5; E coli growth: 0.72; RanGTP-Impb inh: -1.1; AF4-AF9 inh: -7.1; UCH37 inh: -13; FGF22 binding: i
C/C=C/C1=CC(=O)C[C@H](c2ccc(OC)c(OC)c2)C1 is listed as Vif TR-FRET: nt; HNF4A DNA FP: 0.8; E coli growth: nt; RanGTP-Impb inh: nt; AF4-AF9 inh: 0.7; UCH37 inh: 0.6; FGF22 binding: i
